Screening results: PubChem BioAssay, several laboratories
UUG fidelity: modulators of start codon recognition fidelity in yeast; S. cerevisiae UUG-firefly luciferase reporter, luminescence/redox ratio; activity score, % at 18.7 µM; hit rate 0.13% among 350,000;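 active = replicate mean at a twofold rise or more, about +100% in these data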;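 note: firefly luciferase made from a UUG start codon reports start codon fidelity; reporter light over untreated wells divided by growth signal over untreated wells; some hits fall short of that in this replicate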
Env fusion inh: HIV envelope-mediated fusion inhibition | hit rate 1.1% among 360,000 | AID 651610 | inhibition, % at 12.3 µM | HeLa-JRFL Env/CEM21 cell fusion, luciferase;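 active = mean replicate inhibition score of at least 50 and every replicate individually at or above 50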;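 note: 0% = plate neutral controls and 100% = maraviroc near 300 nM; one replicate is shown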
CSC inhib: blocks cancer stem cells; cancer stem cell-like cells viability, luminescence; inhibition, % at 7.5 µM; hit rate 1.1% among 300,000;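 active = mean at 75% or more and at least half the replicates too; tested in HMLE shEcad cells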;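 note: 0% = median of negative and 100% = median of positive control wells; the first replicate is given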
eIF4H inh: inhibitors of RNA binding by human eIF4H. Q15056. eIF4H fluorescence polarization binding assay. inhibition, % at 35 µM. hit rate 0.94% among 290,000. AID 2012;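 active = 50% or more with normal probe brightness, or confirmed in later tests; about a fifth of its hits are not listed in these tables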;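 note: calls also rest on retests at 20 µM and on dose response follow-up; 0% = protein and probe with vehicle and 100% = probe without protein; strong numbers were not always called active; many hits fall short of the cut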
MT1-MMP act inh: blocks activation of human MT1-MMP | P50281 | HT1080 RFP-PRO-GFP cells, GFP/RFP ratio fluorescence, overnight; percent of plate control window, DMSO zero | GFP/RFP ratio change, % at 20 µM | hit rate 0.061% among 360,000;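 active = GFP/RFP ratio change of at least 30% with cell ATP level not reduced by more than half and red fluorescence within 50% of control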; note: strong numbers were not always called active
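Assay system: HT1080 RFP-PRO-GFP cells. Benchmarks: DMSO vehicle wells and RFP-L50D-GFP reporter cell wells. Times: overnight cell settling, then overnight compound exposure, 37 °C, 5% CO2. Compound: 20 µM single dose, 1% DMSO. Read-out basis: GFP/RFP fluorescence ratio.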
PABP FP inh: blocks human PABP binding to poly(A) RNA; inhibition, % at 35 µM; fluorescence polarization; AID 2014; P11940; hit rate 1% among 290,000;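 active = 50% or more with normal probe brightness, or confirmed in later tests; about a fifth of its hits are not listed in these tables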;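 note: calls also rest on retests at 20 µM and on dose response follow-up; controls were probe without protein and protein plus probe with vehicle; some compounds called inactive have numbers as strong as hits; many hits fall short of the cut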
Target sequence (P11940 whole entry, looked up): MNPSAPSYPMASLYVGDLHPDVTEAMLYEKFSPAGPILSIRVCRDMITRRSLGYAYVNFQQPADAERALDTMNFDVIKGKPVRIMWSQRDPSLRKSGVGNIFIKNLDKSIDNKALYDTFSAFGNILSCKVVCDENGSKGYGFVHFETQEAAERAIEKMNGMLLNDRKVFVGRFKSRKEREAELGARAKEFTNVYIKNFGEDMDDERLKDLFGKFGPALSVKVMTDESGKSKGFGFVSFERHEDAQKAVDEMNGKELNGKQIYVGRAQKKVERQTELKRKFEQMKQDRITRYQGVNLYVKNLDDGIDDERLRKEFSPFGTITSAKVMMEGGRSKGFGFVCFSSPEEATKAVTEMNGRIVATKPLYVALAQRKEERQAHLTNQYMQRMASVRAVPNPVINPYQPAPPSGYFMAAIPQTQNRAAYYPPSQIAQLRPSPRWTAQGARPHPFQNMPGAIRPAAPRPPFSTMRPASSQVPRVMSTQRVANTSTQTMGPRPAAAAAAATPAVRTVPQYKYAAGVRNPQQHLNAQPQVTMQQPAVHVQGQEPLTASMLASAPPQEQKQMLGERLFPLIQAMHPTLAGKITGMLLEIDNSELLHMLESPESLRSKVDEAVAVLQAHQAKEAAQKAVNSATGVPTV
Rce1 inhib: yeast Ras-converting enzyme inhibition | Q03530 | yeast membranes, quenched prenylated peptide cleavage fluorescence | calls only | hit rate 0.27% among 290,000 | AID 2563;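 active = fall in fluorescence gain of 50% or more versus controls, with final raw signal at or below 3038400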;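 note: plate controls were neutral control wells for no effect and wells lacking membranes for full effect; tested at 10 µM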
MT1-MMP act inh RFP: recorded beside MT1-MMP act inh, whose call it bears; RFP signal change, %; measured here: RFP expression control read;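 0 = vehicle wells; hits needed this value within 50% of zero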
Starred values were filed as active, the others as inactive; i = inactive; . = not tested or not shown.

cpd	compound	UUG fidelity	Env fusion inh	CSC inhib	eIF4H inh
1	NNC(=O)c1ccccc1-n1cccc1	11.5	-21.3	2.0	1.3
2	CCOC(=O)C1=C(CCl)NC(=O)NC1c1ccc2c(c1)OCO2 (stereo unspecified)	-13.6	-7.5	3.1	1.6
3	Cc1cc(C)nc(-n2ncc(C#N)c2N)n1	.	-4.4	0.6	-0.9
4	CC(C)c1nnc(NC(=O)CCC(=O)Nc2ccc(Cl)cc2)s1	.	-13.1	-2.6	-13.2
5	O=C(c1ccc(NC(=O)C2(c3ccccc3)CCCC2)cc1)N1CCOCC1	1.3	3.1	-1.9	1.0
6	COc1ccc(NC(=O)CCS(=O)(=O)c2cc3c(cc2Cl)NC(=O)CO3)cc1OC	-8.5	-9.0	-3.3	2.0
7	COC(=O)C1=NN(C(C)(C)CC(C)=O)C2C(=O)N(C3CCCCC3)C(=O)C12 (stereo unspecified)	.	17.0	1.4	7.6
8	CCCCC(CC)C(=O)Nc1ccccc1C(=O)NC(C)C (stereo unspecified)	-4.2	.	-4.8	-4.1
9	C/C(=N\NC(=O)c1ccc(F)cc1)c1ccc(N2CCOCC2)cc1	.	-12.8	9.7	-6.9
10	O=C(NC1CC1)C1=COCCO1	-17.7	2.6	1.7	0.3
11	COC1(c2cc(-c3ccccc3)nc(N)n2)CCCCC1	-2.1	-90.2	.	5.7
12	O=C(/C=C/c1c(F)cccc1Cl)Nc1ncccn1	.	2.5	2.1	37.8
13	COc1ccc(OCC(=O)N2CCN(c3nnc(-c4ccc(C)cc4)c4ccccc34)CC2)cc1	-8.3	16.7	6.7	-8.3
14	COc1ccc(-c2ccc(CN3C(C)C(=O)N(Cc4cn(CCC5OCCCO5)nn4)CCS3(=O)=O)cc2)cc1 (stereo unspecified)	1.0	7.6	.	.
15	CCCCC1CC(C)(C(=O)CSc2nc3ccccc3s2)OC1=O (stereo unspecified)	-5.7	.	9.4	-5.7

cpd	MT1-MMP act inh	MT1-MMP act inh RFP	PABP FP inh	Rce1 inhib
1	0.6	2.1	0.5	i
2	0.4	0.4	-0.4	i
3	0.0	-0.1	6.3	.
4	-1.0	-0.8	0.0	i
5	-1.6	-2.5	-2.1	i
6	-1.5	0.5	12.8	i
7	2.3	5.4	-2.9	i
8	-0.3	-7.0	0.8	i
9	6.0	11.2	-7.8	i
10	-1.1	-0.1	0.8	i
11	2.2	-2.5	9.9	i
12	2.9	0.9	7.3	i
13	-3.2	-30.8	-8.2	i
14	-0.2	-7.7	.	.
15	0.5	-0.6	6.1	i

Going on with the list:
cpd	compound	UUG fidelity	Env fusion inh	CSC inhib	eIF4H inh
16	CC1=C(C(=O)NCc2ccc3c(c2)OCO3)C2(CCC(C)CC2)OC1=O (stereo unspecified)	-11.3	-11.3	10.5	-2.3
17	CN(C)S(=O)(=O)c1cc(NC(=O)c2ccc(-n3ccnc3)c([N+](=O)[O-])c2)ccc1Cl	12.9	39.1	2.0	11.3
18	O=C(CCC(=O)OCc1ccc(Cl)cc1)Nc1cccc([N+](=O)[O-])c1	-17.1	-23.8	-18.7	-3.4
19	Cc1nn(C)c(C)c1C1C(C#N)=C(N)OC2=C1C(=O)CC(C)(C)C2 (stereo unspecified)	-1.9	-217.3	-5.2	5.2
20	Cc1nc(SCC(=O)c2ccc(F)cc2)c([N+](=O)[O-])[nH]1	-26.0	.	5.0	0.4
21	O=c1ccc2c(o1)/C(=C/C=C(Cl)Cl)CCC2	-4.6	.	0.7	4.6
22	COc1cc(/C=C/C(=O)c2ccccc2O)cc(OC)c1OC	-1.9	.	3.1	5.5
23	O=C1NCCOC(=O)[C@H](Cc2ccc(F)cc2)CC/C=C/C[C@@H]1CC(=O)N(CCO)Cc1ccccc1	-5.6	-8.4	-18.3	.
24	COn1c(=O)c(-c2ccccc2)[n+]([O-])c2ccccc21	-11.2	4.7	8.3	1.9
25	Cn1ccnc1Sc1cc(Cl)ccc1[N+](=O)[O-]	.	13.5	-4.8	-0.2
26	Cc1cc(C)c2c(N)c(C(=O)Nc3ccccc3Cl)sc2n1	-9.0	-25.9	2.7	.
27	C=CCc1cccc2cc(C(=O)N3CCN(C(=O)OCC)CC3)c(=O)oc12	-9.6	-35.5	1.2	-1.7
28	c1ccc(CNC2=NCCCC2)cc1	-19.9	.	-2.8	-7.1
29	c1ccc2c(c1)oc1c(-c3cccc4nccn34)cccc12	-11.1	35.2	.	.
30	O=C(Cc1cccc(C(F)(F)F)c1)Nc1ccc(S(=O)(=O)N2CCCC2)cc1	-6.0	-6.1	10.3	.

cpd	MT1-MMP act inh	MT1-MMP act inh RFP	PABP FP inh	Rce1 inhib
16	-5.6	1.0	-8.5	i
17	-0.4	-23.6	27.3	i
18	-5.3	0.0	10.2	i
19	2.2	5.6	-3.7	i
20	3.3	1.2	-11.6	i
21	-2.7	5.0	16.9	i
22	-1.3	-2.7	3.0	i
23	9.8	-11.9	.	.
24	2.5	2.0	2.1	i
25	-2.6	3.5	13.6	i
26	2.3	-0.1	.	i
27	8.0	3.5	-4.2	i
28	0.5	7.0	5.6	i
29	-4.6	-2.9	.	.
30	-1.1	-0.9	.	.

Going on with the list.
cpd	compound	UUG fidelity	Env fusion inh	CSC inhib	eIF4H inh
31	O=C(NC(=S)Nc1cccc(Cl)c1N1CCOCC1)c1cccs1	.	12.4	-4.2	-9.5
32	CC1(C(=O)NS(=O)(=O)c2cccc(F)c2)CCN1C(=O)c1cccc2ccccc12 (stereo unspecified)	-6.7	-11.3	.	.
33	OC(c1cccc(Cl)c1)c1nc(-c2ccc3c(c2)OCO3)cs1 (stereo unspecified)	-11.9	7.0	.	.
34	O=C(NCC1CCCO1)c1sc(=S)n2c1[nH]c(=O)c1ccc(C(=O)N3CCCCC3)cc12 (stereo unspecified)	-20.3	-79.0	4.3	9.3
35	Cc1cc(=O)oc2cc(OCc3nnc(-c4ccccc4Br)o3)ccc12	-1.1	.	-1.1	-10.9
36	Cc1ccc2cc(CN(Cc3ccco3)C(=O)c3ccco3)c3nnnn3c2c1	-0.3	5.4	.	-1.3
37	CCn1ccnc1CN(C)C(=O)C1CCC(=O)N(CCc2cccc(F)c2)C1 (stereo unspecified)	-17.6	4.4	-14.6	-2.9
38	O=C(O)CC1=C(O)C(=O)N(c2ccccc2)C1c1ccc(Br)cc1 (stereo unspecified)	1.3	.	1.7	0.1
39	Cc1ccc(C)c(S(=O)(=O)Nc2ccc(C(=O)NCCCN(C)C)cc2)c1	-15.9	2.5	.	.
40	CCOc1cc(NCCN2CCOCC2)c([N+](=O)[O-])cc1OCC	3.5	18.8	-4.9	-1.3
41	O=S(=O)([N-]c1nc2ccccc2nc1-[n+]1ccc(CCCc2ccccc2)cc1)c1cccs1	1.7	17.3	10.8	116.5*
42	O=C1CN(C(=O)COC(=O)/C=C/c2ccc(S(=O)(=O)N3CCOCC3)cc2)c2ccccc2N1	.	-0.8	-4.0	-0.3
43	CCc1ccc(OCC(=O)NN2Cc3ccccc3C2=N)cc1	.	-2.0	-14.9	6.6
44	CCOC(=O)N1CCN(C(=O)COC(=O)CNC(=O)c2ccc(Cl)cc2Cl)CC1	0.8	3.7	-20.2	.
45	CC1(C(=O)NS(=O)(=O)c2ccccc2Cl)CCN1C(=O)CC(c1ccccc1)c1ccccc1 (stereo unspecified)	-7.3	1.9	.	.

cpd	MT1-MMP act inh	MT1-MMP act inh RFP	PABP FP inh	Rce1 inhib
31	-3.1	0.6	-4.8	i
32	3.9	4.1	.	.
33	2.3	1.0	.	.
34	-3.3	-3.9	38.1	i
35	-1.0	-3.8	-1.2	.
36	-4.0	-3.3	3.9	i
37	-4.7	-1.7	-4.1	i
38	-0.8	4.8	-2.0	i
39	-1.6	6.7	.	.
40	7.4	-3.2	-6.0	i
41	-6.8	0.3	56.2*	i
42	-2.2	-0.6	0.1	i
43	-4.5	4.5	-1.3	i
44	-1.9	3.6	.	i
45	-5.4	2.1	.	.

The list continues.
cpd	compound	UUG fidelity	Env fusion inh	CSC inhib	eIF4H inh
46	O=C(CSc1n[nH]c(-c2ccccc2)n1)Nc1ncc(Br)cc1Br	-11.2	.	0.5	-3.4
47	CC(C)OC(=O)NCCOC(=O)Nc1cccc(Cl)c1	-12.9	-48.6	1.1	-5.9
48	O=C(NC1=NCCS1)[C@H](Cc1ccccc1)N1C(=O)c2ccccc2C1=O	2.3	-10.2	1.8	-5.4
49	Cc1noc(C)c1C(=O)N1CCC1(C)C(=O)NS(=O)(=O)c1ccc(C#N)cc1 (stereo unspecified)	-9.4	-6.9	.	.
50	COc1ccccc1Nc1nc2nonc2nc1N1CCCCC1C (stereo unspecified)	.	-9.9	17.4	-0.7
51	O=C(c1cccs1)N1N=C(c2ccccc2)CC1c1ccc(O)cc1 (stereo unspecified)	-1.2	.	3.1	-11.9
52	CN(C(=O)CSc1nnc(COc2ccccc2F)n1N)C1CCS(=O)(=O)C1 (stereo unspecified)	.	0.3	3.8	.
53	COc1cccc(CN(C)C(=O)C2CSC3(C)CCC(=O)N23)c1OC (stereo unspecified)	10.1	6.2	.	.

cpd	MT1-MMP act inh	MT1-MMP act inh RFP	PABP FP inh	Rce1 inhib
46	4.5	-5.8	8.5	i
47	2.6	7.2	4.7	i
48	0.7	2.9	-7.4	i
49	-0.6	5.2	.	.
50	-4.4	-11.1	4.4	.
51	0.7	-2.2	-5.2	i
52	-0.2	2.7	.	i
53	-2.3	4.6	.	.

A second format for part of the listing above.
Below each SMILES: UUG fidelity, Env fusion inh, CSC inhib, eIF4H inh, MT1-MMP act inh, MT1-MMP act inh RFP, PABP FP inh, Rce1 inhib
41: O=S(=O)([N-]c1nc2ccccc2nc1-[n+]1ccc(CCCc2ccccc2)cc1)c1cccs1
  1.7, 17.3, 10.8, 116.5*, -6.8, 0.3, 56.2*, i
42: O=C1CN(C(=O)COC(=O)/C=C/c2ccc(S(=O)(=O)N3CCOCC3)cc2)c2ccccc2N1
  ., -0.8, -4.0, -0.3, -2.2, -0.6, 0.1, i
43: CCc1ccc(OCC(=O)NN2Cc3ccccc3C2=N)cc1
  ., -2.0, -14.9, 6.6, -4.5, 4.5, -1.3, i
44: CCOC(=O)N1CCN(C(=O)COC(=O)CNC(=O)c2ccc(Cl)cc2Cl)CC1
  0.8, 3.7, -20.2, ., -1.9, 3.6, ., i
45: CC1(C(=O)NS(=O)(=O)c2ccccc2Cl)CCN1C(=O)CC(c1ccccc1)c1ccccc1 (stereo unspecified)
  -7.3, 1.9, ., ., -5.4, 2.1, ., .
46: O=C(CSc1n[nH]c(-c2ccccc2)n1)Nc1ncc(Br)cc1Br
  -11.2, ., 0.5, -3.4, 4.5, -5.8, 8.5, i
47: CC(C)OC(=O)NCCOC(=O)Nc1cccc(Cl)c1
  -12.9, -48.6, 1.1, -5.9, 2.6, 7.2, 4.7, i
48: O=C(NC1=NCCS1)[C@H](Cc1ccccc1)N1C(=O)c2ccccc2C1=O
  2.3, -10.2, 1.8, -5.4, 0.7, 2.9, -7.4, i
49: Cc1noc(C)c1C(=O)N1CCC1(C)C(=O)NS(=O)(=O)c1ccc(C#N)cc1 (stereo unspecified)
  -9.4, -6.9, ., ., -0.6, 5.2, ., .
50: COc1ccccc1Nc1nc2nonc2nc1N1CCCCC1C (stereo unspecified)
  ., -9.9, 17.4, -0.7, -4.4, -11.1, 4.4, .
